USP2a inh – USP2a (human) protease inhibition | O75604 | USP2 core, Ub-CHOP2 coupled fluorogenic reporter, 485/531 | Potency, µM (top dose mostly 38.3 µM), for the others: top-dose activity change, negative = inhibition, usual class: inhibitors | 0.01% of 330,000 active | AID 463254;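 note: potency is the fitted concentration of half-maximal effect; plate controls were DMSO wells for no effect and full inhibition by NEM control for full effect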
Target sequence (O75604 whole entry, looked up): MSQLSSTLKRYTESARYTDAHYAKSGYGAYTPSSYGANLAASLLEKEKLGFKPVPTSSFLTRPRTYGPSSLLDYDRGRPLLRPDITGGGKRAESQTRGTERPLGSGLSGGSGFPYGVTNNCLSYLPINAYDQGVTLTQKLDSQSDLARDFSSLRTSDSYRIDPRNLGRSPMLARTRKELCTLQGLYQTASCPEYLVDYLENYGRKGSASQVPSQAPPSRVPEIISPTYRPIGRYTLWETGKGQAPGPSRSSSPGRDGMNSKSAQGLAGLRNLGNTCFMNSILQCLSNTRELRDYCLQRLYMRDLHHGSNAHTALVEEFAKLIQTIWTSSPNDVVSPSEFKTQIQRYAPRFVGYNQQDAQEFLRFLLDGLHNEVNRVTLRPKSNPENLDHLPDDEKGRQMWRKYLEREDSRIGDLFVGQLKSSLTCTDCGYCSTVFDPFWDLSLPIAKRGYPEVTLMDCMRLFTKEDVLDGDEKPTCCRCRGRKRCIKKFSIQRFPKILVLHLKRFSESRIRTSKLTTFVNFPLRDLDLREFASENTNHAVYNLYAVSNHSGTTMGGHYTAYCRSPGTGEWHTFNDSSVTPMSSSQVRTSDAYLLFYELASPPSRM
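Deubiquitinase activity read as fluorescence (485/531 nm) after Ub-CHOP2 cleavage activates the enterokinase reporter on its substrate; USP2 core 10nM, Ub-CHOP2 and substrate 25nM each, 30min compound preincubation then 60min RT; data normalized to NEM, curves fitted.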
PKM2 activator – PKM2 (human) enzyme activation | P14618 | purified PKM2, Kinase-Glo ATP luminescence, activation; response scale: 0% is enzyme alone, no compound | Potency, µM (titrated, usually from 57.5 µM), without a hit: at the top dose activation, most hits filed as activators | 0.34% of 260,000 active | AID 1631; note: potency is the fitted concentration of half-maximal effect; nearly all actives have a fitted effect of over 55% in size
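Purified hPK-M2 (>95%) run at intermediate activity with 0.1 mM ADP and 0.5 mM PEP in 50 mM imidazole pH 7.2, KCl, MgCl2; 1 h room temperature. ATP formed read by Kinase-Glo luminescence; normalized to uninhibited and no-enzyme controls.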
Giardia killer – Giardia lamblia killing; Giardia lamblia trophozoite viability; 0.15% of 340,000 active; activity change, % at 7.66 µM, hits read low; in the data active = activity change below about -80%; inconclusive = between about -30% and that limit;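 note: parasites exposed to compound for two days anaerobically before the ATP read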
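Giardia trophozoites, 100 cells per well, were exposed to compounds for 48 hrs at 37 deg C under anaerobic conditions; viability was then read as ATP content by bioluminescence after 15-30 min at room temperature.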
GALK inh – galactokinase (human) inhibition | P51570 | 0.007% of 270,000 active | Potency, µM (titrated, usually from 57.5 µM), without a hit: at the highest dose activity change, negative = inhibition, most hits filed as inhibitors | Purified GALK, Kinase-Glo residual ATP luminescence; note: potency is the fitted concentration of half-maximal effect
Target sequence (P51570 whole entry, looked up): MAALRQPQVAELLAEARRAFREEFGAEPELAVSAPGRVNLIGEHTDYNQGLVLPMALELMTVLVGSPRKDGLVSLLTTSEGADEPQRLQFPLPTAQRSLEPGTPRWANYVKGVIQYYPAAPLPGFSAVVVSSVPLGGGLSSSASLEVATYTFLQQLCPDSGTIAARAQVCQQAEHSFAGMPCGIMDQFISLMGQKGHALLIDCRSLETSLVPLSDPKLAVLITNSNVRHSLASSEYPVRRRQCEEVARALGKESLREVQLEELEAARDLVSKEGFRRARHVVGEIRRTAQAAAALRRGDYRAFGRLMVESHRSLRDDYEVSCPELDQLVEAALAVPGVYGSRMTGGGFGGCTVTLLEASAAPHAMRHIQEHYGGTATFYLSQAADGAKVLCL
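Luminescence from leftover ATP (Ultra-Glo luciferase/luciferin) served as read-out after a 1 h room-temperature reaction of 5 nM GALK with 35 uM ATP and 100 uM galactose.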
B2AR arrestin – recruits beta-arrestin to the human beta2-adrenergic receptor | AID 492947 | beta-arrestin recruitment to beta2AR, cell-based reporter | Potency, µM (top dose mostly 46.1 µM), for inactives: top-dose activation, most hits filed as activators | P07550 | 0.02% of 330,000 active;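 note: potency is the fitted concentration of half-maximal effect; 0% = DMSO controls and full agonism = EC100 isoproterenol or metaproterenol; nearly all actives have a fitted effect of over 65% in size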
FBPA coupling cs – coupling enzyme interference in Giardia aldolase counter-screen; 0.67% of 290,000 active; activity change, negative = inhibition, % at 58.2 µM, hits read low; coupling enzyme system counterscreen, AmpLite Red fluorescence; in the data active = activity change below about -30%
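Counterscreen of the coupled detection system alone, without aldolase: glyceraldehyde-3-phosphate coupling enzymes plus AmpLite Red readout. Compounds at 57.5 uM final, 10 min RT preincubation, 20 min RT reaction, fluorescence 525/598 nm.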
BCR signal inh – inhibitors of chronic active B-cell receptor signaling; ABC-DLBCL IkBa-CBG/CBR reporter, luminescence ratio, 4 h; 0.05% of 340,000 active; Potency, µM (titrated, usually from 46.1 µM), inactives show at the highest dose ratio change, negative = lower green/red ratio, hits mostly inhibitors; AID 493014; active = well fitted inhibition curve with a large enough effect in the signal ratio, with a control signal flat, not every such curve was filed as active; inconclusive = small, poorly fitted or top-dose-only effect, or effect the other way, or a change in a side signal; the % refers to the signal ratio;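 note: potency is the fitted concentration of half-maximal effect; plate controls were basal doxycycline-induced cells for no effect and cells given 10 µM MG132 for full effect; MG132 reads +100%, hits lower the ratio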
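Concentration-response series (up to 46 uM) were applied to TMD8 dual-reporter cells for 4 h at 37C with doxycycline. Green/red ratio, after filter-overlap correction, defined %Activity; red signal alone was normalised to basal cells and zero luminescence.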
uPA surface inh – cell surface uPA generation inhibition | cell surface uPA generation assay, qHTS | Potency, µM (doses to about 38.3 µM), without a hit: top-dose activity change, negative = inhibition, usual class: inhibitors | 0.31% of 330,000 active; active = well fitted inhibition curve with a large enough effect; inconclusive = small, poorly fitted or top-dose-only effect; inactive = no such curve, though single readings can be large or run the other way; tested in mouse RAW 264.7 cells; note: potency is the fitted concentration of half-maximal effect; nearly all actives have a fitted effect of over 55% in size
Eya2 inh – inhibitors of human Eya2 phosphatase activity | O00167 | recombinant Eya2, OMFP fluorescence dephosphorylation (OMFP is methylfluorescein phosphate) | Potency, µM (highest dose often 76.9 µM), for inactives: at the highest dose activity, negative = inhibition, actives largely listed as inhibitors | 0.006% of 330,000 active | AID 488837; note: potency is the fitted concentration of half-maximal effect
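Eya2 (0.2 uM) preincubated 10 min at ambient with compound, then OMFP substrate added at 50 uM; 10 min reaction in 50 mM HEPES pH 7.5, 50 mM NaCl, 5 uM MgCl2, 0.05% BSA, 1 mM DTT. Fluorescence read at Ex 485/Em 525 nm.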
Active calls of the source: *; ? = inconclusive; nt = no result given; & = joins results of further samples; [ ] = another dose, or the depositor's remark. Unless noted, calls come from the whole dose curve; as a rule, active = well fitted curve in the direction sought with a large enough effect; inconclusive = small, poorly fitted or top-dose-only effect, or another doubt; inactive = no such curve, though single readings can be large; an effect the other way counts as inactive or inconclusive. Unless noted, % is set by controls: 0 for no effect and ±100 for the full control effect. Some of the compounds tested; count on the stated rates, not on these rows.

SMILES	USP2a inh	PKM2 activator	Giardia killer	GALK inh	B2AR arrestin	FBPA coupling cs	BCR signal inh	uPA surface inh	Eya2 inh
O=C(O)c1ccc(Cl)c(NCc2cccnc2)c1	-3%	1%	-9	2%	0.3%	3	0%	-4%	7%
CCOc1ccccc1C(=O)N1CCOCC1	1%	0%	11	0%	0.1%	3	12%	2%	-1%
Cc1cc(C(F)(F)F)nc(SCC(=O)NC2=NC(=O)C(C)S2)n1 (stereo unspecified)	0%	0%	6	5%	-0.2%	-1	1%	-1%	13%
Cc1ccccc1Nc1nnc(SCC(=O)NCc2ccco2)s1	3%	1%	-10	-1%	0.2%	0	-7%	1%	9%
O=C(O)c1cccc(NC(=O)c2ccc3c(c2)C(=O)N(c2ccccc2)C3=O)c1	-1%	nt	-3	4%	0.1%	8	10%	0%	0%
COc1cc(-c2noc(C)c2C(=O)NCCCN2CCCC2=O)cc(OC)c1OC	2%	nt	48[activator]	nt	-0.1%	nt	0%	-3%	2%
CC1(C)O[C@@H]2C[C@H]3[C@H]4C[C@H](F)C5=CC(=O)C=C[C@@]5(C)[C@@H]4[C@H](O)C[C@]3(C)[C@]2(C(=O)CO)O1	nt	nt	nt	nt	nt	-2	nt	nt	nt
CCCC(=O)Nc1ccc2c(c1)nc1n2CCN(C2CCCCC2)C1	-4%	-1%	2	-1%	0.4%	-9	-4%	-19%	-14%
Cc1cccc(NC(=O)COC(=O)C2C3CC4OC(=O)C2C4C3)c1C (stereo unspecified)	1%	0%	-7	5%	-0.6%	0	1%	1%	10%
O=c1c(-c2ccc(O)cc2)coc2cc(O)ccc12	nt	nt	?	nt	nt	2&5&1&1	nt	?	-10%
O=C(O)c1cc(=O)c2c(OCC(O)COc3cccc4oc(C(=O)O)cc(=O)c34)cccc2o1	1%	-6%	4	nt	-0.1%	-1&0&-2&-6&1	5%	12%	5%
CC(=O)OCC(=O)[C@@]1(O)CCC2C3CCC4=CC(=O)CC[C@]4(C)C3C(=O)C[C@]21C (stereo partly specified)	nt	nt	nt	nt	nt	1	nt	nt	nt
CC1(C)S[C@@H]2[C@H](NC(=O)[C@H](N)c3ccccc3)C(=O)N2[C@H]1C(=O)OC1OC(=O)c2ccccc21 (stereo partly specified)	3%	nt	21	nt	0.1%	nt	2%	-5%	11%
C=CCN1C2CCCC1CC(NC(=S)Nc1cccc(OC)c1)C2 (stereo unspecified)	2%	22%	6	0%	-0.1%	1	-14%	-26%	9%
Cc1cccc(-c2c(NC(=O)c3ccco3)oc3ccc(Cl)cc3c2=O)c1	0%	-6%	7	0%	0.3%	-3	6%	-8%	2%
C=CCn1c(=S)[nH]c2cc(C(=O)N3CCN(c4ccccc4OC)CC3)ccc2c1=O	-1%	nt	23	nt	0.1%	nt	13%	6%	10%
Nc1c2c(nn1-c1ccc(C(=O)O)cc1)CNC2	0%	nt	6	nt	0.2%	0	1%	0%	-6%
CC[N+](C)(C)c1cccc(O)c1	-1%	-3%	-4	-2%	2.7%	4&-1&-4	0%	-5%	-9%&4%
C[C@@H]1C[C@H]2[C@@H]3C[C@H](F)C4=CC(=O)C=C[C@@]4(C)[C@]3(F)[C@H](O)C[C@]2(C)[C@@]1(O)C(=O)CO	nt	nt	nt	nt	nt	-1	nt	nt	nt
O=C(Nc1cccc(F)c1)c1ccc2c(c1)OCCO2	3%	nt	-22	1%	-0.6%	-1	?	-2%	9%
Cc1csc(SCC(=O)NC2CCC(C)CC2)n1 (stereo unspecified)	1%	nt	-22	nt	1.3%	nt	3%	-2%	4%
Cc1nn(C)cc1C(C(=O)NC1CCCCC1)N(C(=O)c1cnccn1)c1ccc(Oc2ccccc2)cc1 (stereo unspecified)	2%	1%	-3	nt	-0.2%	1	-1%	-2%	-4%
NC(=O)N1c2ccccc2C=Cc2ccccc21	0%&1%	-16%	-24&22	-1%	-0.1%&0.5%	2&1&1	-3%&0%	-26%&13%	-6%&1%&6%
Cc1cc(OC(C)C(=O)NCCCN2CCOCC2)c2c(C)c(C)c(=O)oc2c1 (stereo unspecified)	1%	nt	-25	0%	0.2%	-5	5%	4%	-6%
Cc1ccc(NC(=O)CCC(=O)NNC(=S)Nc2ccc(F)cc2F)cc1C	-4%	0%	-8	8%	0.5%	3	?	-11%	-2%

Three of the entries above in order of their number in Eya2 inh, descending:
Structure | Eya2 inh
Cc1cc(C(F)(F)F)nc(SCC(=O)NC2=NC(=O)C(C)S2)n1 (stereo unspecified) | 13%
Cc1cccc(NC(=O)COC(=O)C2C3CC4OC(=O)C2C4C3)c1C (stereo unspecified) | 10%
C=CCN1C2CCCC1CC(NC(=S)Nc1cccc(OC)c1)C2 (stereo unspecified) | 9%

3 compounds picked at random from the list so far:
SMILES	USP2a inh	PKM2 activator	Giardia killer	GALK inh	B2AR arrestin	FBPA coupling cs	BCR signal inh	uPA surface inh	Eya2 inh
Cc1ccccc1Nc1nnc(SCC(=O)NCc2ccco2)s1	3%	1%	-10	-1%	0.2%	0	-7%	1%	9%
CC[N+](C)(C)c1cccc(O)c1	-1%	-3%	-4	-2%	2.7%	4&-1&-4	0%	-5%	-9%&4%
C=CCn1c(=S)[nH]c2cc(C(=O)N3CCN(c4ccccc4OC)CC3)ccc2c1=O	-1%	nt	23	nt	0.1%	nt	13%	6%	10%

Carrying on:
SMILES	USP2a inh	PKM2 activator	Giardia killer	GALK inh	B2AR arrestin	FBPA coupling cs	BCR signal inh	uPA surface inh	Eya2 inh
NC(=O)NCC(=O)N1CCN(S(=O)(=O)c2ccc(Cl)s2)CC1	0%	nt	-16	nt	-0.2%	nt	3%	-3%	4%
CNc1ccc(Oc2nc([N+](=O)[O-])nn2C)cc1	2%	5%	-10	2%	0.0%	-8	2%	0%	-14%
COc1ccc(-c2cc(=O)c3ccccc3o2)cc1	-8%	-6%	?	-2%	-0.3%	1&1	?	?	0%
CC(C)c1ccc(NC(=O)COC(=O)C2=COCCO2)cc1	3%	7%	-3	1%	0.1%	1	3%	3%	1%
CCNC(=S)NNc1nncc2ccccc12	0%	nt	-20	-7%	?	-1	?	-3%	16%
CC(C)[N+]1(C)[C@@H]2CC[C@@H]1CC(OC(=O)C(CO)c1ccccc1)C2 (stereo partly specified)	1%	nt	12	nt	0.1%	nt	?	5%	2%
CC(CC(=O)Nc1nc2ccccc2[nH]1)c1ccccc1 (stereo unspecified)	1%	-4%	8	-1%	-0.2%	4	?	-8%	7%
CCc1cccc(NC(=O)CCNS(=O)(=O)c2cc(Br)cnc2N)c1	1%	nt	7	-4%	0.1%	nt	1%	4%	-1%
O=C(CN1CCN(C/C=C/c2ccccc2)CC1)Nc1cc([N+](=O)[O-])ccc1Cl	-6%	-25%	-14	1%	1.4%	-10	-7%	4%	-5%
CC(=O)OCC(=O)[C@@]1(O)CC[C@H]2[C@@H]3CCC4=CC(=O)CC[C@]4(C)[C@@H]3C(=O)C[C@@]21C	nt	nt	nt	nt	nt	-1	nt	nt	nt
NC(=O)c1ccc(NC(=O)CS(=O)(=O)c2cn(CC(=O)N3CCCCC3)c3ccccc23)cc1	3%	-3%	-9	-5%	-1.1%	1	3%	12%	-3%
O=C(Nc1cnccn1)Nc1ccc(Cl)cc1Cl	2%	6%	-7	1%	-0.5%	2	?	9%	-12%
CC(=O)C1CCC2C3CCC4CC(=O)CCC4(C)C3C(O)CC12C (stereo unspecified)	nt	nt	23	nt	nt	nt	nt	-8%	nt
COc1ccc(C(=O)N/C(=C/c2cccs2)c2nc3ccccc3[nH]2)cc1OC	3%	?	-7	nt	-0.3%	-3	?	-12%	8%
CCN(CC)C(=O)N1CCN(C)CC1	8%	-7%	-3	5%	-0.1%	6&3&-1	7%	7%	3%
COc1ccc(-n2nc3c(c2NC(=O)C2CCCC2)CS(=O)(=O)C3)cc1	0%	-1%	-8	-1%	-0.5%	nt	0%	-15%	-2%
CC(=O)OCC(=O)[C@@]1(O)CCC2C3CCC4=CC(=O)CCC4(C)C3C(=O)CC21C (stereo partly specified)	0%	nt	-20	0%	0.4%	-3	-1%	9%	7%
COc1cc2nc(C3CCC3)nc(N3CCN(c4ccccc4OC)CC3)c2cc1OC	0%	5%	5	nt	-0.5%	-2	?	-11%	-3%
CC(C)(C)CC(C)(C)c1ccc(OCCOCC[N+](C)(C)Cc2ccccc2)cc1	?	nt	-10	nt	nt	4&1	?	?	-27%
O=C(Cc1ccc(Cl)cc1)Nc1ccc(N2CCN(C(=O)c3ccco3)CC2)cc1	4%	5%	3	0%	-0.2%	0	1%	-7%	-20%
O=C(c1ccco1)N(Cc1ccc([N+](=O)[O-])cc1)c1ccc(Br)cc1	-2%	0%	-1	4%	-0.7%	3	?	9%	-11%
CCOc1ccc(/C=N/n2c(SC)nnc2-c2ccccc2)cc1OCC	3%	-1%	3	-4%	0.0%	5	-14%	-6%	5%
CC(C)CCNC(=O)C1CCN(S(=O)(=O)c2ccc3c(c2)CC(C)N3C(=O)C2CC2)CC1 (stereo unspecified)	2%	nt	25	-1%	0.6%	-1	5%	-12%	1%
CCC(C)(CN(C)C)OC(=O)c1ccccc1 (stereo unspecified)	3%	nt	-19	nt	0.2%	nt	7%	5%	3%

Compound profiles (already shown).
CC(=O)C1CCC2C3CCC4CC(=O)CCC4(C)C3C(O)CC12C (stereo unspecified) as listed: USP2a inh = nt; PKM2 activator = nt; Giardia killer = 23; GALK inh = nt; B2AR arrestin = nt; FBPA coupling cs = nt; BCR signal inh = nt; uPA surface inh = -8%; Eya2 inh = nt
CCN(CC)C(=O)N1CCN(C)CC1 as listed: USP2a inh = 8%; PKM2 activator = -7%; Giardia killer = -3; GALK inh = 5%; B2AR arrestin = -0.1%; FBPA coupling cs = 6&3&-1; BCR signal inh = 7%; uPA surface inh = 7%; Eya2 inh = 3%
